gsp agonist = agonists of gsp mutant (McCune-Albright syndrome); gsp mutant cells, cAMP HTRF, 30 min; control for the full effect not named in the record; Potency, µM (highest dose often 76.9 µM), for inactives: at the highest dose activation (cAMP increase), hits mostly activators; hit rate 0.13% among 340,000; AID 624287; active = well fitted activation curve with a large enough effect; inconclusive = small, poorly fitted or top-dose-only effect, or another doubt; inactive = no such curve, though single readings can be large or run the other way; cell line not stated here;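 also: phosphodiesterase inhibitor Ro 20-1724 added with compounds to block cAMP breakdown; potency is read from the fitted curve at half-maximal effect; nearly all actives have a fitted effect of over 60% in size; about a fifth of the inactives were tested at one dose only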
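Cells in DMEM/10% FBS with G418 were pretreated with compounds in DMSO plus […] (300 uM stock) for 30 min at 37C. cAMP was measured by HTRF (cAMP-d2 plus anti-cAMP antibody-K) after 30 min at room temperature.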
Sfp PPTase inh = blocks B. subtilis Sfp PPTase activity; Q9F4F7; Biochemical Sfp PPTase activity, qHTS; Potency, µM, for the others: max response, negative = inhibition, most hits filed as inhibitors; hit rate 3.5% among 310,000; active = well fitted inhibition curve with a large enough effect; inconclusive = small, poorly fitted or top-dose-only effect, or another doubt; inactive = no such curve, though single readings can be large or run the other way;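 also: the enzyme is Sfp with the accession as filed and its product quenches rhodamine fluorescence; potency is read from the fitted curve at half-maximal effect; 0% = enzyme reaction without inhibitor and -100% = no enzyme wells; top concentration of the series not given in the record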
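Fluorescence-quenching assay with 15 nM Sfp, 5 uM rhodamine-CoA and 12.5 uM BHQ-2-labelled ybbR peptide in pH 7.6 Hepes/MgCl2 buffer. Enzyme was pre-incubated with compound for 15 min at room temperature. Rate was taken from the 30-min fluorescence change (525/598 nm).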
TRPV1 PAM = potentiators of human vanilloid receptor 1 (TRPV1). Q8NER1. TRPV1-expressing cells, Fluo-8 calcium influx, capsaicin EC20 potentiation; host cell line not named in the record; control for the full effect not named in the record. potentiation, % at 8.33 µM. hit rate 0.02% among 320,000; active means potentiation above 80%; inconclusive means 30% to 80%; inactive means below 30%; also: 0% is about no effect
Target sequence (Q8NER1 whole entry, looked up): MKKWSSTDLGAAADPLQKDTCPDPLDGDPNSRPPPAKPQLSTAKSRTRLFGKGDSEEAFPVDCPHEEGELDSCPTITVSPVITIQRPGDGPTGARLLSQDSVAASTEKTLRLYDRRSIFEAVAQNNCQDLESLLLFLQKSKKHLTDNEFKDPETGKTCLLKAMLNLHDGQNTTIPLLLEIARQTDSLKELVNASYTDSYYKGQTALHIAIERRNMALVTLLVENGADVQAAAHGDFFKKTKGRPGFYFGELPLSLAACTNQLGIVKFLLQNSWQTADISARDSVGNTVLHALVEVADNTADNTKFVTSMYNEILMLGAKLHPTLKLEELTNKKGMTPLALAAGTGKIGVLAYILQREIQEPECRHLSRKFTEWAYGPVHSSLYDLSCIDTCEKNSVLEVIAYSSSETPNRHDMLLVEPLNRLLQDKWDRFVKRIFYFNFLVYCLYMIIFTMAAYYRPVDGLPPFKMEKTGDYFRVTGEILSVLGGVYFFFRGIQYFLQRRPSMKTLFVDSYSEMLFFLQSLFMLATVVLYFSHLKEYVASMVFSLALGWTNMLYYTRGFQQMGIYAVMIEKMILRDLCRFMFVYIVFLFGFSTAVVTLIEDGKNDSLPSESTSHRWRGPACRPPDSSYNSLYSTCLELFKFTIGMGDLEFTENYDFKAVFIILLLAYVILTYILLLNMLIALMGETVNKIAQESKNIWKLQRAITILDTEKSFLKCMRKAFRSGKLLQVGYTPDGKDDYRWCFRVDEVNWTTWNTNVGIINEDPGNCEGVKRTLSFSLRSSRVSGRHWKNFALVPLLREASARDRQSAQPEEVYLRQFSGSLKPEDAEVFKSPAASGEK
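TRPV1-expressing cells were cultured overnight at 35.5C and loaded with Fluo-8 calcium dye for 40 to 90 min at room temperature. After a 10 s baseline, compound was added and calcium influx was read kinetically for 3 min (ex 480/em 520 nm).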
Menin MLL FP FL = displaces fluorescein MLL peptide from human menin; Fluorescence polarization, fluorescein-MLL peptide displacement from menin; FP activity change, % at 61.4 µM; 290,000 tested, under 10 active; AID 1766; inconclusive = falling polarisation curve, or a change in total fluorescence; inactive = total fluorescence flat and polarisation flat or rising; no compound was filed as active; the % refers to the polarisation; negative = inhibition;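 also: % of control where 0% means no effect; inhibitors lower the polarisation; unlabelled MLL peptide was the positive control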
gsp antag = antagonizes gsp, the McCune-Albright syndrome mutation; gsp-mutant cells, cAMP HTRF, 30 min; control for the full effect not named in the record; Potency, µM (titrated, usually from 76.9 µM), for inactives: top-dose activity change, negative = inhibition, actives largely listed as inhibitors; hit rate 0.4% among 340,000; AID 624288; active = falling curve of any shape with a large fitted effect; inconclusive = falling curve, mostly with a smaller effect; inactive = flat or rising curve; cell line not stated here;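 also: intracellular cAMP measured with PDE inhibitor Ro 20-1724 present during compound exposure; potency is read from the fitted curve at half-maximal effect; % is scaled to controls: 0 for no effect and ±100 for the full control effect; nearly all actives have a fitted effect of over 65% in size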
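Cells in G418 medium, seeded 16-24 h, 37C; buffer exchange to DPBS + 1 mM CaCl2, 0.5 mM MgCl2, 0.05% BSA; cpds in DMSO + […] (300 uM stock), 30 min 37C; HTRF cAMP detection.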
ClpP mod = qHTS Assay for Activators of ClpP; hit rate 1.9% among 340,000; AID 651965, 2013; Potency, µM (doses to about 57.5 µM), for the others: at the highest dose activity change, negative = active; purified B. subtilis ClpP, FRET peptide cleavage, 20 min; ATP-dependent Clp protease proteolytic subunit (Bacillus subtilis (strain 168)), P80244; active = well fitted falling curve with a large enough effect; inconclusive = small, poorly fitted or top-dose-only effect; inactive = no such curve, though single readings can be large or run the other way; also: potency is read from the fitted curve at half-maximal effect; the source files actives as falling curves though it sought activators and does not explain the sign; nearly all actives have a fitted effect of over 65% in size; many hits overshoot -100%
Target sequence (P80244 whole entry, looked up): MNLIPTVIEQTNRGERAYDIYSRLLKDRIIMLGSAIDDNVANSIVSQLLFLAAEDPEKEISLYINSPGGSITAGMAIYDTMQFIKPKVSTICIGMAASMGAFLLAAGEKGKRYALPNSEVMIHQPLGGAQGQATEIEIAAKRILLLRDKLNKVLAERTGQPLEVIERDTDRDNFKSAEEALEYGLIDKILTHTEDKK
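Buffer: 100 mM Tris/HCl pH8, 100 mM KCl, 0.05% low protease BSA, 2.5% glycerol, 0.01% Tween-20. ClpP 10 microg/mL final; 20 min RT; delta FRET normalized to ADEP and DMSO controls.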
CtBP-E1A inh = blocks the CtBP interaction with E1A. activity change, % (concentration not given with the values). AlphaScreen GST-E1A/His-CtBP binding, 1536-well; stronger effect = lower value; control for the full effect not named in the record. hit rate 0.49% among 340,000; in the data active means activity change below about -65%; inconclusive means about -30% to -65%; inactive means above about -30%; also: % is scaled to controls: 0 for no effect and ±100 for the full control effect
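GST-E1A and His-tagged CtBP (125 nM each as 5X stock) were preincubated with pin-transferred compound for 2 h at 37 °C in the dark, then glutathione donor and nickel acceptor beads were added for 1 h before AlphaScreen reading.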
* = called active by the depositor; & = joins results of further samples; [ ] = another dose, or the depositor's remark. Outcome played no part in choosing rows; 5.3% or so of the library scored in one or more.

What do the screens show for `C/C(=N\Nc1ccc(S(=O)(=O)N2CCCCC2)cn1)c1ccc(O)cc1`?
gsp agonist: -7%; TRPV1 PAM: -1; gsp antag: -8%; ClpP mod: -22%; CtBP-E1A inh: -5

How did Oc1cc2ccccc2cc1-c1nnc2n1-c1ccccc1SC2 do in these assays?
gsp agonist: 15%; Sfp PPTase inh: 18%; TRPV1 PAM: inconclusive; Menin MLL FP FL: 0.2; gsp antag: 6%; ClpP mod: -0.8%; CtBP-E1A inh: -1

How did Nc1ccc(C(=O)O)cc1[N+](=O)[O-] do in these assays?
gsp agonist: 35%; Sfp PPTase inh: 12%; TRPV1 PAM: -1; Menin MLL FP FL: 1.1; gsp antag: -4%; ClpP mod: 1.0%; CtBP-E1A inh: 2

What do the screens show for `C/C(=N\NC(=O)CCCCCNC(=O)c1ccccc1)c1ccccc1O`?
gsp agonist: 0%; Sfp PPTase inh: 30%; TRPV1 PAM: 0; Menin MLL FP FL: 7.0; gsp antag: 6%; ClpP mod: 3.5%; CtBP-E1A inh: -9

Results for CC1CCN(Cc2nnnn2CCCC(=O)N(C)C2CCOC2)CC1 (stereo not given) ?
gsp agonist: 18%; Sfp PPTase inh: 13%; TRPV1 PAM: -3; Menin MLL FP FL: 2.6; gsp antag: 9%; ClpP mod: -0.7%; CtBP-E1A inh: 1

How did CCOc1ccc(CC(=O)N2CCN=C2SC)cc1 do in these assays?
gsp agonist: 4%[15.4 µM]; Sfp PPTase inh: 16%; TRPV1 PAM: -18; Menin MLL FP FL: -7.7; gsp antag: -59%; CtBP-E1A inh: 2

How did Cc1cccc(C)c1NC(=O)NC1CC2CCC(C1)N2Cc1cccs1 (stereo not given) do in these assays?
gsp agonist: -47%[inhibitor]; Sfp PPTase inh: 8%; TRPV1 PAM: inconclusive; Menin MLL FP FL: 1.4; gsp antag: 1%; ClpP mod: -0.1%; CtBP-E1A inh: 7

Results for CCC(CC)NC(=O)COC(=O)c1ccc(OCc2ccc(C(C)=O)cc2OC)c(OC)c1 ?
gsp agonist: 8%; Sfp PPTase inh: inconclusive; TRPV1 PAM: 11; Menin MLL FP FL: 1.8; gsp antag: -7%; ClpP mod: 2.3%; CtBP-E1A inh: 1

What do the screens show for `O=C(C[n+]1cccc(CNC(=O)c2ccc(OC(F)F)cc2)c1)Nc1ccccc1Cl`?
gsp agonist: 1%; Sfp PPTase inh: -5%; TRPV1 PAM: -8; Menin MLL FP FL: 0.7; gsp antag: 11%; ClpP mod: -2.7%; CtBP-E1A inh: 0

Results for Cc1ccc(NC(=O)C(C)N2C(=O)c3ccccc3C2=O)cc1C (stereo not given) ?
gsp agonist: -27%; Sfp PPTase inh: -3%; TRPV1 PAM: inconclusive; Menin MLL FP FL: 5.1; gsp antag: -5%; ClpP mod: -1.0%

Results for CC(C)C12CN3CC(C(C)C)(CN(C1)C3(C)C)C2=O ?
gsp agonist: -1%[15.4 µM]; Sfp PPTase inh: 3%; TRPV1 PAM: -15; Menin MLL FP FL: -1.6; CtBP-E1A inh: 0

What do the screens show for `COc1cccc(NC(=O)CN(C)C(=O)CCSc2ccc(C)cc2)c1`?
gsp agonist: 31%; TRPV1 PAM: -18; gsp antag: -7%; ClpP mod: 0.2%; CtBP-E1A inh: 0

How did COc1ccc(C2CC(c3ccc(F)cc3)=NN2c2ccccc2)cc1OC (stereo not given) do in these assays?
gsp agonist: 1%[15.4 µM]; Sfp PPTase inh: -7%; TRPV1 PAM: -13; Menin MLL FP FL: 3.8; gsp antag: -3%; ClpP mod: -0.4%; CtBP-E1A inh: 8

Results for O=C(CP(=O)(c1ccccc1)c1ccccc1)N/N=C/c1cc(Br)cc(Br)c1O ?
gsp agonist: 2%[15.4 µM]; Sfp PPTase inh: 12%; TRPV1 PAM: 26; Menin MLL FP FL: 6.9; gsp antag: -27%; ClpP mod: -2.4%; CtBP-E1A inh: 0

Results for CC(=O)COc1ccc2c(-c3ccccc3)cc(=O)oc2c1 ?
gsp agonist: -49%[15.4 µM]; Sfp PPTase inh: -1%; TRPV1 PAM: -23; Menin MLL FP FL: 1.5; gsp antag: 1%; ClpP mod: inconclusive; CtBP-E1A inh: -4

Results for COc1ccccc1N1CCN(S(=O)(=O)c2cc3[nH]c(=O)c(=O)[nH]c3cc2C)CC1 ?
gsp agonist: 22%; Sfp PPTase inh: -3%; TRPV1 PAM: -21; gsp antag: 9%; ClpP mod: inconclusive; CtBP-E1A inh: inconclusive

Results for CCN(CC)CCn1c(=N)n(CC(O)c2ccco2)c2ccccc21 (stereo not given) ?
gsp agonist: -28%; Sfp PPTase inh: -6%; TRPV1 PAM: 12; Menin MLL FP FL: -17; gsp antag: 4%; ClpP mod: -0.2%

What do the screens show for `Cc1ccc(CN(c2ccc(C(=O)NCc3ccccn3)cc2)S(C)(=O)=O)cc1`?
gsp agonist: -14%; Sfp PPTase inh: 10%; TRPV1 PAM: 11; Menin MLL FP FL: -0.7; gsp antag: -1%; ClpP mod: -1.4%; CtBP-E1A inh: 0

How did Cc1ccc(S(=O)(=O)N[C@@H](Cc2ccccc2)C(=O)N2CCC[C@@H]2C(=O)O)cc1 do in these assays?
gsp agonist: 5%[15.4 µM]; Sfp PPTase inh: 9%; TRPV1 PAM: 1; Menin MLL FP FL: 0.5; gsp antag: 3%; ClpP mod: 1.4%; CtBP-E1A inh: 10

Results for CCOc1ccccc1C1C(C(=O)OC)=C(N)OC2=C1C(=O)CCC2 (stereo not given) ?
gsp agonist: -39%[inhibitor]; Sfp PPTase inh: -18%; TRPV1 PAM: -25; Menin MLL FP FL: 0.5; gsp antag: -13%; ClpP mod: -1.6%; CtBP-E1A inh: 3

Results for O=C(CCn1c(=S)[nH]c2cc3c(cc2c1=O)OCO3)NCc1cccc(Cl)c1 ?
gsp agonist: inconclusive; Sfp PPTase inh: 10%; TRPV1 PAM: 23; gsp antag: 22%; ClpP mod: -0.7%; CtBP-E1A inh: 7

Results for CCOC(=O)c1cc(NC(=O)Nc2cc(C)ccn2)c(C)nc1C ?
gsp agonist: 5%[15.4 µM]; Sfp PPTase inh: -5%; TRPV1 PAM: 15; Menin MLL FP FL: -1.5; gsp antag: 0%; ClpP mod: -2.8%; CtBP-E1A inh: -8

Results for CCN(CC(=O)NCCc1ccc(S(N)(=O)=O)cc1)Cc1nc2ccccc2c(=O)[nH]1 ?
gsp agonist: 19%; Sfp PPTase inh: -3%; TRPV1 PAM: 0; Menin MLL FP FL: 5.6; gsp antag: 17%; ClpP mod: -1.9%; CtBP-E1A inh: -5

What do the screens show for `CCn1c(=O)c2sccc2n(Cc2ccc(C)cc2)c1=O`?
gsp agonist: -21%; Sfp PPTase inh: 23%; TRPV1 PAM: -12; Menin MLL FP FL: 1.3; gsp antag: 2%; CtBP-E1A inh: 3

How did COc1cc(NC(=O)c2ccccc2)c(OC)cc1NC(=O)Cc1ccc(Br)cc1 do in these assays?
gsp agonist: 14%; Sfp PPTase inh: inconclusive; TRPV1 PAM: -6; Menin MLL FP FL: 2.9; gsp antag: -3%; CtBP-E1A inh: -18

What do the screens show for `CCC(C)NS(=O)(=O)c1ccc(OCC(=O)Nc2ccc(F)cc2F)cc1` (stereo not given)?
gsp agonist: -1%; Sfp PPTase inh: 13%; TRPV1 PAM: 8; Menin MLL FP FL: -0.2; gsp antag: 1%; ClpP mod: -0.3%; CtBP-E1A inh: -2

How did O=C(c1ccccc1)c1cc(F)c(N2CCOCC2)cc1Cl do in these assays?
gsp agonist: -6%; Sfp PPTase inh: -6%; TRPV1 PAM: -29; Menin MLL FP FL: 2.8; gsp antag: inconclusive; ClpP mod: -0.3%; CtBP-E1A inh: 7

How did COc1ccccc1N1CCN(Cc2nnnn2CCc2ccccc2)CC1 do in these assays?
gsp agonist: inconclusive; Sfp PPTase inh: -11%; TRPV1 PAM: 1; Menin MLL FP FL: 7.0; gsp antag: -3%; ClpP mod: -0.9%; CtBP-E1A inh: -1

How did CC(=O)Nc1cccc(C(=O)OC(C)C(=O)N2CCc3ccccc32)c1 (stereo not given) do in these assays?
gsp agonist: -1%[15.4 µM]; TRPV1 PAM: 10; gsp antag: -7%; CtBP-E1A inh: -15

How did O=c1c2ccccc2nc(N/N=C/c2ccccc2)n1O do in these assays?
gsp agonist: -1%; Sfp PPTase inh: -3%; TRPV1 PAM: 3; Menin MLL FP FL: 3.5; gsp antag: 4%; ClpP mod: -1.2%; CtBP-E1A inh: 0

Results for O=c1[nH][nH]c(=O)c2cc([N+](=O)[O-])ccc12 ?
gsp agonist: inconclusive; TRPV1 PAM: -7; gsp antag: 4%&-2%; ClpP mod: 1.7%; CtBP-E1A inh: -22&-1

How did Cc1cc(=O)oc2c(O)c(O)ccc12 do in these assays?
Sfp PPTase inh: 45µM*; Menin MLL FP FL: 1.0; gsp antag: -18%; ClpP mod: -3.9%; CtBP-E1A inh: 20

How did Cc1oc2c(CN(C)C)c(O)ccc2c(=O)c1-c1ccc2ccccc2n1 do in these assays?
gsp agonist: 0%; Sfp PPTase inh: 11%; TRPV1 PAM: 16; Menin MLL FP FL: 2.5; gsp antag: 1%; ClpP mod: -2.7%; CtBP-E1A inh: 13

What do the screens show for `OCCN1CCN(Cc2cccc(Oc3ccc(Cl)cc3)c2)CC1`?
gsp agonist: -10%; Sfp PPTase inh: -6%; TRPV1 PAM: -3; Menin MLL FP FL: 4.3; gsp antag: 13%; ClpP mod: -0.5%; CtBP-E1A inh: -7

How did Cc1ccc(N2C(=O)NC3(CCCCC3)C2=O)cc1 do in these assays?
gsp agonist: -35%[inhibitor]; Sfp PPTase inh: 8%; TRPV1 PAM: 7; Menin MLL FP FL: -2.2; gsp antag: -2%; ClpP mod: -0.5%; CtBP-E1A inh: -5
